Compound activity as filed in PubChem.
VDR inh = inhibitors of human vitamin D receptor; P11473; VDR-SRC2-3 peptide fluorescence polarization, 2 h; Potency, µM, inactives show max response, negative = inhibition, usual class: inhibitors; 400,000 compounds, 0.93% hits; AID 504847; active means well fitted inhibition curve with a large enough effect; inconclusive means small, poorly fitted or top-dose-only effect, or another doubt; inactive means no such curve, though single readings can be large or run the other way; further: series mostly up to about 120 µM
Target sequence (P11473 whole entry, looked up): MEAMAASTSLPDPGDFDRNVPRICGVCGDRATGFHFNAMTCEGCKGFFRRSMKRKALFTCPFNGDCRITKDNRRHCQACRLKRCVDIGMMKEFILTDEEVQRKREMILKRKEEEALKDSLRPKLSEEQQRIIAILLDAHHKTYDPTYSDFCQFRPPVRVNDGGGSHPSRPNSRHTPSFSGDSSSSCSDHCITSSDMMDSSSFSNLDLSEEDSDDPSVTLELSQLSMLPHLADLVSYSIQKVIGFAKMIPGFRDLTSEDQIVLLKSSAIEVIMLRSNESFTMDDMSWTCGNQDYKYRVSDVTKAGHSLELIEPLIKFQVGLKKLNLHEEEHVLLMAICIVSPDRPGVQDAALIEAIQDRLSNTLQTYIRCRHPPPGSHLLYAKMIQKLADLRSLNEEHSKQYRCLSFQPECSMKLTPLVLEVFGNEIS
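VDR–SRC2-3 interaction, FP format. Cmpds 23 nl via pintool, brief spin, 2 h ambient incubation.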
* hit, by the source's call; ? = inconclusive; & = joins results of further samples. On the % scale 0 is the no-effect control and ±100 the full control effect; potency means the concentration at half of the fitted maximal effect. This is a subset (hit frequency here may not be typical).

SMILES	VDR inh
Oc1ccc(/C=N/NP(=S)(c2ccccc2)c2ccccc2)c(O)c1O	-15%
CCCCCn1c(=O)c(C(=O)NCc2ccccc2)c(O)c2ccccc21	-6%
Cc1ccc(N2C(=O)NC(=O)/C(=C\c3cc(C)n(-c4ccc(C(=O)O)cc4)c3C)C2=O)cc1	-3%
O=C(NN=Cc1ccc(N(CCCl)CCCl)cc1)c1cc(=O)[nH]c(=O)[nH]1	23%
CCN(CC)c1nc(C)cc(OP(=S)(OC)OC)n1	?
O=C1CCN(C(=O)CNC(=O)Cc2ccccc2)CC1	-11%
CCOP(=O)(/C=C(\Cl)c1ccccc1)C(O)c1ccc(F)cc1 (stereo not given)	?
CCN(CC)c1ccc(CN(C)CCc2ccc(OC)c(OC)c2)cc1	11%
C#CC(C)(O)CC (stereo not given)	5%
CN(CC1COc2ccccc2O1)c1nc(-c2cccnc2)nc2ccccc12 (stereo not given)	2%
O=c1c2ccccc2nc(/C=C/c2ccccc2O)n1-c1ccc(Br)cc1	-19%
CCCC(=O)Nc1cc(C(=O)N2CCC3(CC2)OCCO3)ccc1S(=O)(=O)c1ccc(C)cc1	3%
O=C1CCO1	1%&-4%
COc1ccc(CC2C(=O)NC(C)C(=O)N(C)C3C(=O)N(C)C(Cc4ccc(O)c(c4)Oc4ccc(cc4)C3O)C(=O)NC(C)C(=O)NC(C)C(=O)N2C)cc1 (stereo not given)	-12%
CCOP(=S)(OCC)SCC(=O)NC(C)(CC)C(=O)O (stereo not given)	-3%
COc1ccc(CN2CC=C(c3ccc(F)cc3)CC2)cc1Br	-27%
CSc1ccc(C(=O)C2CCCN(Cc3cccnc3)C2)cc1 (stereo not given)	-6%
O=C1NC(=O)N(Cc2cccs2)C(=O)/C1=C/c1ccc(N2CCOCC2)cc1	?
O=C1OCCC1NC1=NCCC1 (stereo not given)	4%
CC(C)N1CCN(Cc2cc3c(cc2Cl)OCO3)CC1CCO (stereo not given)	-12%
CCCCCn1c(=O)c(C(=O)NCc2ccco2)c(O)c2ccccc21	0%
CCOP(=O)(C#CC(C)(C)C)C1(O)CCCCC1 (stereo not given)	-8%
CN1C2CCC1CC(=NO)C2	-6%
CCCCC(=O)N/N=C/c1c(O)n(C2CC2)c(=S)[nH]c1=O	7%
CCOP(=O)(OCC)C(NC(=O)C(Cl)Cl)C(Cl)(Cl)Cl (stereo not given)	18%
C=C1C(=O)OC2CC(C)C3C=CC(=O)C3(C)C(O)C12 (stereo not given)	?
CN1CC[C@@]2(C)c3cc(O)ccc3N(C)C12 (stereo not given in full)	?
N=C(N)c1ccc(CS(=O)(=O)F)cc1	-1%
CCOC(=O)c1c(-n2c(C)cc(/C=C3/C(=O)NC(=O)N(CC)C3=O)c2C)sc2c1CCCC2	2%
Cc1cccc(CN2C(=O)CN=C(c3ccccc3)c3cc(Cl)ccc32)c1	6%
CC1(O)CCC2C3CCC4=CC(=O)CCC4=C3C=CC21C (stereo not given)	-11%
N=C1c2ccccc2CN1CC(=O)c1ccccc1	-13%

Two records drawn at random from the list so far:
SMILES	VDR inh
CC1(O)CCC2C3CCC4=CC(=O)CCC4=C3C=CC21C (stereo not given)	-11%
CCOC(=O)c1c(-n2c(C)cc(/C=C3/C(=O)NC(=O)N(CC)C3=O)c2C)sc2c1CCCC2	2%

(next part)
SMILES	VDR inh
O=C(Cn1c(NCCCl)nc2ccccc21)c1ccc(Br)cc1	-21%
Brc1ccc(C2N3CCCN23)cc1 (stereo not given)	8%
O=c1c2ccccc2nc(-c2ccco2)n1-c1ccccc1	-1%
Cc1cc(C)c2c(c1)-c1cc(C)nn1C(c1cccnc1)N2 (stereo not given)	-7%
CCOC(=O)c1ccc(N=C(CC)c2c(O)n(C)c(=O)n(C)c2=O)cc1	-5%
CCN(CC)C(=O)c1ccc(NC(=O)CCn2nc(-c3ccc(C)cc3)c3ccccc3c2=O)cc1	-11%
CCOP(=O)(Cc1cc(C#N)oc1C)OCC	0%
O=c1[nH]c(=O)n(CC2CCCO2)c(O)c1/C=C1\C=Nc2ccccc21 (stereo not given)	9%&-17%
COc1cc(C(C)=O)ccc1OC(=O)N(C)c1ccccc1	-4%
C[C@]12CC[C@H](O)C[C@H]1CCC1C2CC[C@]2(C)[C@@H](c3ccc(=O)oc3)C[C@H]3O[C@]132 (stereo not given in full)	?
O=S(=O)(F)c1ccc2nc(-c3cccc(Sc4ccccc4)c3)cc(Cl)c2c1	15%
COC(=O)C1=C(c2ccc3ccccc3c2)C[C@@H]2CC[C@H]1N2C(=O)NC1Cc2ccccc2C1	-8%
C#C[C@@]1(O)CCC2C3CCC4=C/C(=N/OCC(=O)NC(C(=O)O)C(C)O)CC[C@]4(C)C3CC[C@@]21C (stereo not given in full)	-8%
CCC(CC)N1CCN(Cc2nc3ccccc3c(=O)n2-c2ccc(F)cc2)CC1	0%
C[N+]1(C)CCc2cc3c(cc2[C@H]1[C@@H]1OC(=O)c2c1ccc1c2OCO1)OCO3	-1%&-15%&7%
CC(C)C[C@H](NC(=O)CNC(=O)[C@H](CCC(N)=O)NC(=O)[C@H](Cc1ccc(O)cc1)NC(=O)[C@@H](NC(=O)[C@H](Cc1ccc(O)cc1)NC(=O)CNC(=O)[C@@H](N)CCCN=C(N)N)C(C)C)C(=O)O	12%
Cc1nc2cc(C(=O)N3CCC4(CC3)OCCO4)ccc2n1-c1ccc(Br)cc1	9%
O=[N+]([O-])c1ccc(N2CCCCCC2)c2ncccc12	-5%
CC12CN3C(O)C(C)(C1)CC(C)(C2)C3O (stereo not given)	5%
ClC(Cl)(Cl)Cl	1%
Cc1cc(/C=C2/C(=O)NC(=O)N(c3ccccc3)C2=O)c(C)n1-c1ccc(F)cc1	-26%
Cc1c(C(=O)c2ccccc2)c2ccccc2n1C	-8%
FC(F)=C(F)CCSc1ncn[nH]1	-5%
Cc1cc(Cl)nc(N)n1	0%
CCOc1ccc2nc(N=Nc3c(O)[nH]c(=S)[nH]c3=O)sc2c1	-5%
NC(N)=NCCCCCCCCCCN=C(N)N	-8%&3%
COc1ccccc1N1CCN(Cc2c(F)cccc2Cl)CC1	16%
CC1=C(O)C(=O)C=C2C1=CC=C1[C@]2(C)CC[C@@]2(C)C3C[C@](C)(C(=O)O)CC[C@@]3(C)CC[C@@]12C (stereo not given in full)	3.5µM*
CCCC[C@@H](C)[C@@H](OC(=O)C[C@@H](CC(=O)O)C(=O)O)[C@H](C[C@@H](C)CCCCCC[C@@H](O)C[C@H](O)[C@H](C)N)OC(=O)C[C@@H](CC(=O)O)C(=O)O	-17%
Fc1cccc(F)c1CN1CCN(Cc2c(F)cccc2F)CC1	4%
Cc1ccc(Cn2ccccc2=N)cc1	-9%
CN1CC[C@@]23CCCCC2C1Cc1ccc(O)cc13 (stereo not given in full)	6%
O=C(C1CC(c2ccc(F)cc2)=NO1)N1CCC2(CC1)OCCO2 (stereo not given)	10%
CC(C)NC[C@H](O)COc1cccc2[nH]ccc12	4%&-3%&-11%&-1%
CCN(CC)c1ccc(/C=C2\C(=O)NC(=O)N(CC3CCCO3)C2=O)cc1 (stereo not given)	-5%
CN(C)C1(CNC(=O)c2ccc(Cl)c(S(=O)(=O)NCc3ccco3)c2)CCCCC1	1%
COC1/C=C/C=C(\C)Cc2cc(O)c(Cl)c(c2)N(C)C(=O)CC(OC(=O)C(C)C)C2(C)OC2C(C)C2CC1(O)NC(=O)O2 (stereo not given)	1%
CCC(=O)N1N=C2C3CCN(CC3)C2C1c1ccccc1 (stereo not given)	1%
Cc1ccc(CN2C3CCCC2CC(NC(=S)NCc2ccccc2)C3)cc1 (stereo not given)	-5%
C=CCN1CC[C@@]2(C)c3cc(O)ccc3CC1[C@@H]2C	?
CC1CCCN(CC(=O)N2CCCc3ccccc32)C1 (stereo not given)	15%
Cc1ccc(N2C(=O)NC(=O)C(CCc3ccccn3)(Cc3ccc(F)cc3)C2=O)cc1 (stereo not given)	10%
O=C1NC(=O)N(Cc2ccc(F)cc2)C(=O)/C1=C\c1ccc([N+](=O)[O-])s1	?
O=C(Nc1ccccc1OC(=O)N1CCCCC1)N1CCCCC1	9%
O=C(CN1C(=O)CCSc2ccccc21)N1CCC2(CC1)OCCO2	3%
CCN1C[C@@]2(COC)C3[C@@H](OC)C4[C@@H]1C3([C@@H]1C[C@]3(O)[C@H](OC(=O)c5ccccc5)[C@@H]1[C@]4(OC(C)=O)[C@@H](O)[C@@H]3OC)[C@H](OC)C[C@H]2O	-1%
CC12CC(=O)C3C(CCC4CC(=O)C=CC43C)C1CCC2=O (stereo not given)	-16%
C[C@H]1C/C=C/[C@H]2[C@H](O)[C@H](C)[C@@](C)(O)[C@H]3[C@H](Cc4ccccc4)NC(=O)[C@]32[C@H](O)/C=C/[C@](C)(O)C1	-3%
C=CCn1c(O)c(/C(C)=N/NC(=S)Nc2ccccc2)c(=O)[nH]c1=O	-22%
Cc1ccc2c(c1)C1CN(C)CCC1N2C(=O)c1cccs1 (stereo not given)	-11%
C[C@]12CCC3C(CC[C@H]4C[C@H](O)CC[C@]34C)C1[C@@H](O)[C@@H](O)[C@@H]2O (stereo not given in full)	6%
C[C@]12C=CC(=O)C=C1C=C[C@@H]1C2CC[C@]2(C)C(=O)CCC12 (stereo not given in full)	-5%
CC12CC(O)C3C(CCC4=CC(=O)CCC43C)C1CCC2=O (stereo not given)	-11%
CN1C(=O)/C(=C\c2ccc(N3CCCCCC3)cc2)C(=O)NC1=S	?
COc1ccccc1N=Nc1c(O)[nH]c(=S)[nH]c1=O	6%
Cc1ccc2c(c1)Cc1c(C(=O)NC3CCCCC3)nn(-c3ccc(Cl)cc3Cl)c1-2	0%

Going on with the list:
SMILES	VDR inh
CCOc1ccc2nc(NC(=O)c3cccn(Cc4ccccc4Cl)c3=O)sc2c1	-2%
O=C(c1cccc([N+](=O)[O-])c1)C12CN3CN(CN(C3)C1)C2	6%
CCCC[C@H]1C(=O)O[C@H](C)[C@H](NC(=O)c2cccc(NC=O)c2OC)C(=O)O[C@@H](C)[C@@H]1OC(=O)CC(C)C	1%&18%&14%
C=CCn1c(O)c(C=NCCCOc2ccc(CC)cc2)c(=O)[nH]c1=S	29%
Cc1ccc(C2CN(C)CC2C(=O)c2ccc(F)cc2)cc1 (stereo not given)	25%
COC(=O)C1=C(c2cccc3c2S(=O)(=O)c2ccccc2-3)C[C@@H]2CC[C@H]1N2C(=O)N1CCOCC1	?
CCN1C[C@]2(C)CC[C@H](OC)[C@]34C5C[C@@H]6CC[C@@](O)(C5C(=O)O6)C(C13)[C@@H](OC(=O)c1ccccc1)C24	3%
Cc1ccc(CNC(=O)CCCn2c(=O)c3sccc3n(CC(=O)Nc3c(C)cccc3C)c2=O)cc1	-10%
COC(=O)C1=C(c2ccc(S(C)(=O)=O)cc2)C[C@@H]2CC[C@H]1N2C(=O)NC1CCCCC1	-9%
CCCOC(=O)COc1cc(C)cc2oc(=O)c3c(c12)CCC3	8%
O=C(c1cc2cc(Cl)ccc2[nH]1)N1CCC2(CC1)OCCO2	-15%
COc1ccccc1N1CCN(Cc2c(F)cccc2F)CC1	-1%
O=C(c1cccnc1)C1CCCN(Cc2nc(-c3cnccn3)no2)C1 (stereo not given)	-23%
CC=C(C)C1(CCC)C(=O)NC(=S)NC1=O	-4%
Cc1ccc(-n2c(C)nc3cc(Cl)ccc3c2=O)nc1	2%
CCOC(=O)C1=C(N)OC2=C(C(=O)CCC2)C12C(=O)Nc1ccccc12 (stereo not given)	-12%
Oc1ccc2c3c1O[C@H]1c4oc5ccccc5c4C[C@@]4(O)[C@@H](C2)N(CC2CC2)CC[C@]314	-1%
CCCCCOc1ccc(C)cc1CN(CCCl)CCCl	-27%
CSc1ccc(C(=O)C2CCCN(Cc3cc4ccccc4[nH]3)C2)cc1 (stereo not given)	89µM*
COc1ccc2c3c1O[C@H]1C(=O)CC[C@@]4(O)C(C2)N(CC2CC2)CCC314 (stereo not given in full)	12%
CCn1c(O)c(C(c2ccccn2)c2c(O)n(CC)c(=S)[nH]c2=O)c(=O)[nH]c1=S	-8%
CC(C)(C)c1ccc(C(=O)Nc2ccc(Cl)cc2C(=O)c2ccccc2)cc1	10%
O=C1CC(=O)N(c2cccc(Br)c2)C(=O)N1	-7%
O=C(COc1ccccc1)NCCc1cnc[nH]1	2%

Reformatted field by field: part of the list above.
> COc1ccc2c3c1O[C@H]1C(=O)CC[C@@]4(O)C(C2)N(CC2CC2)CCC314 (stereo not given in full)
  VDR inh: 12%
> CCn1c(O)c(C(c2ccccn2)c2c(O)n(CC)c(=S)[nH]c2=O)c(=O)[nH]c1=S
  VDR inh: -8%
> CC(C)(C)c1ccc(C(=O)Nc2ccc(Cl)cc2C(=O)c2ccccc2)cc1
  VDR inh: 10%
> O=C1CC(=O)N(c2cccc(Br)c2)C(=O)N1
  VDR inh: -7%

Following part
SMILES	VDR inh
NNC(=O)c1ccc(Cl)cc1	-15%
CC(C)CC(=O)NC(Oc1ccc(Cl)cc1)C(Cl)(Cl)Cl (stereo not given)	10%
O=C(Nc1ccncc1)c1cccn(Cc2ccccc2)c1=O	-8%
CCc1ccc(NC(=O)CN2CC(c3ccccc3)CC2=O)cc1 (stereo not given)	-13%
CCN(C(=O)COC(=O)c1cn(C)c2ccccc12)c1ccc(F)cc1	-18%
CC(c1ccccc1)n1cncc1C(=O)O (stereo not given)	-5%
CC1(C)C2C[C@@H](O)[C@]3(C)C(CC[C@@]4(C)[C@H](c5ccoc5)C[C@H]5O[C@]543)[C@@]2(C)[C@@H](O)C[C@H]1O (stereo not given in full)	-5%
